# Screening results as filed in PubChem.
# Ecoli growth – blocks Escherichia coli growth. OD600, 23 h; stronger effect = lower value. 330,000 tested, 0.21% active. AID 1053175. OD600 absorbance (concentration not given with the values);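 active = OD600 absorbance below the run mean of sample wells minus 3.6 SD, in any replicate, cut at about 0.56 in these data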;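 note: stock transfer was 300 nL into about 60 µL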
# RanGTP-Imp inh – inhibitors of RanGTP-importin-beta interaction, primary screen, biochemical, FRET, CFP-Ran, YFP-importin-beta, homogeneous; 300,000 tested, 1.1% active; inhibition, % (no concentration beside the values); cell-free CFP-Ran/YFP-importin-beta FRET ratio; AID 2216;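 active = most replicates above 15%; inconclusive = exactly half above 15%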;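 note: 0% = DMSO wells and 100% = Ran loaded with GDP instead of GTP; wells of about 40 µL received 100 nL stock; the first replicate is given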
# Vif TR-FRET – HIV-1 Vif–A3G interaction blockers – biochemical, TR-FRET, GST-Vif 1-94, biotin-A3G peptide, dose response retest, primary screen (AID 1117319). TR-FRET GST-Vif / biotin-A3G peptide binding; higher % means a stronger effect; test concentration not given here; strong numbers were not always called active. inhibition, %, or IC50 in µM where a hit was titrated. 260,000 tested, 0.57% active;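 active = above the screen mean plus three standard deviations and confirmed in dose response; inconclusive = results disagree or hit not tested in dose response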;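 note: Vif residues 1-94 fused to GST binding biotinylated APOBEC3G peptide 110-148; 0% = full assay without inhibitor and 100% = GST in place of GST-Vif; retest series ran down from 100 µM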
# UCH37 DUB inh – blocks the human deubiquitinase UCH37; Q9Y5K5; purified proteasome/UCH37, Ub-AMC cleavage fluorescence; inhibition, % (test concentration not listed); 330,000 tested, 0.33% active;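 active = mean of two replicates above 20%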;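 note: 0% = compound-free wells with enzyme and 100% = wells lacking proteasome; stock transfer was 100 nL into about 20 µL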
#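 Signal – fluorescence, ex 355 nm, em 460 nm · System – Proteasome-bound UCH37 · Input – 0.15 nM proteasome as dispensed · Timing – 30 min preincubation with enzyme, 25 min cleavage at room temperature · Read-out basis – percent inhibition of cleavage signal versus uninhibited and no-proteasome wells · Medium – Tris-HCl pH 7.4 with ATP-MgCl2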
# AF4-AF9 inh – blocks AF4 peptide binding to human AF9. 350,000 tested, 0.47% active. AlphaScreen, biotin-AF4 peptide binding to FLAG-AF9. P42568. inhibition, % at 10 µM;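 active = every replicate reaching a set inhibition limit, whatever the replicate mean, cut at about 25% in these data; inconclusive = mean inhibition reaches that limit but some replicates miss it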;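 note: 0% = plate neutral control median and 100% = total signal loss; the record names both 10 and 1 µM as test concentration; the first replicate is given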
# Target sequence (P42568 whole entry, looked up): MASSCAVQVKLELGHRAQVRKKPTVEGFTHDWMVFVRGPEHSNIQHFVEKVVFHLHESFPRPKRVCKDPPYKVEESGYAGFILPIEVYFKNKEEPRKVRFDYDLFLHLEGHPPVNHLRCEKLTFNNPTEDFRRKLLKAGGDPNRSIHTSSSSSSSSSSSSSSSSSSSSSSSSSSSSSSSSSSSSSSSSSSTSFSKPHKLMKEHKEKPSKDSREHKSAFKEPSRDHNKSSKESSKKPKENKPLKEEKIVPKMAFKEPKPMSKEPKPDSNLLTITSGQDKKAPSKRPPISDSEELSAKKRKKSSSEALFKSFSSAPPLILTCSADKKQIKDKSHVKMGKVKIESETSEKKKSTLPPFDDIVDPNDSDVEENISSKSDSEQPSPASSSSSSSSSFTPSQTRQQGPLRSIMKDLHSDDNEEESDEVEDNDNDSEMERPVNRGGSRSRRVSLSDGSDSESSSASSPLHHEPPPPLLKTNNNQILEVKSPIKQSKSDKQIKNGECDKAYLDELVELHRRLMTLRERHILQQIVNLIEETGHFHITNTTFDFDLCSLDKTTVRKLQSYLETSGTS
# FGF22 binding – binders of recombinant human FGF22 by thermal shift; 340,000 tested, 1.5% active; SYPRO orange fluorescence; percent of sucrose octasulfate shift, DMSO zero; AID 651658; calls only at 9.99 µM;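 active = melting point raised past a set limit in the mean and every replicate; inconclusive = no clear call; three in four hits are not shown here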
# HNF4A DNA FP – change in binding of human HNF4 alpha to DNA. HNF4a-FITC DNA binding, fluorescence polarization, 1 h. activity change, % at 10 µM. 360,000 tested, 0.3% active; in the data active = activity change above about 30%, passing the limit was not always enough;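 note: controls were the assay level and a saturating level of protein; the project sought stronger binding though the title names inhibitors; some compounds called inactive have numbers as strong as hits; positive values seem to mean higher polarization but the record does not say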
# Target sequence (P41235 whole entry, looked up): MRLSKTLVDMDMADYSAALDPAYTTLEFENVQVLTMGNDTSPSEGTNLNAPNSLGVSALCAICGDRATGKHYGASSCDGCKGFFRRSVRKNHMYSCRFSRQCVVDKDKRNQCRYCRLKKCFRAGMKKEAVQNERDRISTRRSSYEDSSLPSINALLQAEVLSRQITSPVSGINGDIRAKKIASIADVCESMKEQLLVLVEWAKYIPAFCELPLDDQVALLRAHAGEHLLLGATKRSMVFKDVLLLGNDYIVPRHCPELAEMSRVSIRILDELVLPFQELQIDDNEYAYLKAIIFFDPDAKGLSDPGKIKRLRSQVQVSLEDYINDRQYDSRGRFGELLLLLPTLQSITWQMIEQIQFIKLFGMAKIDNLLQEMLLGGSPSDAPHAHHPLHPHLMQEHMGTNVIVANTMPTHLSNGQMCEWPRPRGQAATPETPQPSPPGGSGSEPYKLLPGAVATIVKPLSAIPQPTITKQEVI
# * marks the source's active call; other numbers are inactive results; i = inactive; ? = inconclusive; / = not tested or not shown. These rows are one share of the data; count on the stated rates, not on these rows.
# Every second line gives: Vif TR-FRET	FGF22 binding	AF4-AF9 inh	RanGTP-Imp inh	HNF4A DNA FP	Ecoli growth	UCH37 DUB inh
- Cn1c(N)c(C(=O)COC(=O)COc2ccc(C#N)cc2)c(=O)n(C)c1=O
    /	i	-10	6.3	0.5	0.72	1.9
- CCOC(=O)c1ccc(CC(=O)c2oc3cc(O)ccc3c2C)o1
    29%	i	5.4	-1.5	5.0	0.67	-25
- COC(=O)c1c(NC(=O)COC(=O)CCNS(=O)(=O)c2ccccc2)sc(C)c1C
    /	i	-1.5	2.5	-2.5	0.67	0.5
- Cc1cc(C)c(NC(=O)C(C)Sc2nc3ccc(N4C(=O)c5ccccc5C4=O)cc3s2)c(C)c1 (stereo unspecified)
    -1%	/	/	-3.3	0.8	0.75	3.1
- CCC1CCC(N2CCN(c3cccc(OC)c3)CC2)CC1 (stereo unspecified)
    /	i	13	-4.0	5.8	0.68	-0.1
- COc1ccc(N2CC(C(=O)NCCc3c[nH]c4ccccc34)CC2=O)cc1 (stereo unspecified)
    /	i	0.0	5.2	-1.3	0.71	6.7
- C[C@H](NC(=O)[C@H](Cc1ccccc1)n1c(=O)[nH]c2ccccc2c1=O)C(=O)N1CCC(C(=O)O)CC1
    /	i	-2.2	3.1	3.0	0.67	-0.5
- COc1cc(C=C2C(=O)C=CC2=O)ccc1O
    /	i	-12	/	-9.9	/	/
- CC(N=C1NS(=O)(=O)c2ccccc21)c1ccccc1 (stereo unspecified)
    ?	/	/	/	-0.4	0.75	-1.8
- O=C(CCN1C(=O)COc2ccccc21)NCCCN1CCN(c2ccc(F)cc2)CC1
    8%	/	/	-1.8	-4.3	0.66	2.9
- O[C@@H]1CN(Cc2cccs2)[C@@H](c2ccc(Cl)cc2)C[C@H]1n1cc(C2CC2)nn1
    0%	i	2.7	/	3.6	/	/
- Cc1ccc(S(=O)(=O)N2CCN(C(=O)COC(=O)c3ncc(Cl)c(Cl)c3Cl)CC2)c(C)c1
    /	i	1.0	/	-4.3	0.7	4.1
- COc1ccccc1-c1nnc(SCC(=O)N2CCC(C)CC2)o1
    -3%	/	/	2.9	0.9	0.73	2.2
- O=C(COC(=O)CCc1ccccc1)NNC(=O)c1ccccc1
    -8%	i	-2.7	/	4.0	0.68	2.7
- COC(=O)C1=CN(c2ccc(OC)cc2OC)C(N)=C(C#N)C1c1cccc([N+](=O)[O-])c1 (stereo unspecified)
    /	i	5.0	/	0.2	/	/
- NC(=O)c1sc2nc3c(cc2c1N)CCCCCC3
    0%	i	0.3	0.9	4.7	0.69	-22
- COc1ccc(S(=O)(=O)N2CCC(C(=O)N[C@H](C(=O)NCc3ccncc3)C(C)C)CC2)cc1
    /	i	1.1	-3.2	-2.8	0.7	-1.0
- O=c1[nH]cnc2sc3c(c12)CN(Cc1ccccc1)CC3
    2%	/	/	9.8	-6.8	0.65	-74
- Nc1ccn([C@@H]2O[C@H](CNCc3cccc(OC4CCCC4)c3)[C@@H](O)[C@H]2O)c(=O)n1
    4%	i	-0.1	/	-1.0	/	/
- CCc1c(O)nc(SCC(=O)N(CC)CC)[nH]c1=O
    /	i	-1.9	1.5	-3.9	0.67	4.1
- CC(/C=C/c1ccco1)=N\NC(=O)c1cccnc1
    20µM*	/	/	3.9	1.9	/	/
- O=C(NCCOCCOCCNC(=O)c1ccccc1)c1ccccc1
    6%	i	-4.6	/	-8.3	0.7	2.4
- Cc1ccc(OCc2nnc(SC(C)C(=O)O)n2-c2ccccc2)cc1 (stereo unspecified)
    /	i	-2.8	6.1	-1.4	/	/
- CCOC(=O)Cn1nc(-c2ccccc2)nc1-c1ccccc1
    -9%	/	/	3.7	1.6	0.68	3.5
- CCOc1ccc(NC(=O)COc2ccc(C(=O)NCC3CCCO3)cc2OC)cc1 (stereo unspecified)
    -3%	i	-8.2	/	-0.3	0.64	2.5
- Cc1cn2c(-c3ccc(Cl)cc3)nnc2s1
    -1%	i	1.0	2.4	-2.3	0.73	2.3
- Nc1nc(SCc2ccccn2)c2ncn(C3CCCC3)c2n1
    -6%	i	-0.8	/	-1.1	0.65	4.6
- O=C(COc1ccc2ccccc2c1)NNC(=O)Cc1ccccc1
    -102%	i	-1.8	2.1	-4.7	0.7	0.3
- OCCCCCN=c1cc(-c2ccccc2)oc2ccc(Cl)cc12
    16%	/	/	5.0	1.3	0.67	2.2
- O=C(CNC(=O)c1ccco1)N/N=C/c1cccs1
    2%	i	/	?	-5.6	/	/

# Remaining list, next part
# Every second line gives: Vif TR-FRET	FGF22 binding	AF4-AF9 inh	RanGTP-Imp inh	HNF4A DNA FP	Ecoli growth	UCH37 DUB inh
- C=C(C)CNC(=S)Nc1cccc2cnccc12
    5%	i	-3.5	2.6	6.3	0.7	4.2
- CCN1CCN(Cc2ccc(NC(=O)c3ccc(C)c(NC(=O)c4nccn4C)c3)cc2C(F)(F)F)CC1
    /	i	4.2	2.9	1.5	0.69	2.0
- COc1cc(NC(=O)C(C)C)ccc1NC(=O)c1ccco1
    0%	i	-1.2	-0.6	3.2	0.65	3.9
- O=C(Nc1nnc(SCc2cccc3ccccc23)s1)C1COc2ccccc2O1 (stereo unspecified)
    /	i	0.2	-3.4	-3.4	0.71	1.5
- CCN1CCc2c(C#N)c(NCc3ccccc3)nc(N(CC)CC)c2C1
    63µM*	/	/	?	-1.2	0.66	-13
- CCN(CC)C(=N)/C(C#N)=N/Nc1ccc(C)cc1
    -3%	i	5.4	-0.5	5.7	/	/
- CC1(C)Cc2c(c(-c3ccccc3)[nH]c(=O)c2C#N)CO1
    -8%	/	/	?	-4.5	0.74	-2.5
- C/C(=N/NC(=O)CSc1nc2ccccc2n1C)c1ccco1
    7%	i	2.6	1.6	2.2	/	/
- Cc1ccc(C)c(N(Cc2ccccc2F)S(C)(=O)=O)c1
    /	/	/	-2.4	3.2	0.67	4.4
- Cc1cccc(C(=O)N2CCC(C)(C(=O)NS(=O)(=O)C3CC3)C2)c1C (stereo unspecified)
    /	i	-6.3	/	-2.0	/	/
- CNC(=S)N/N=C/c1ccc2c(c1)OCCO2
    /	i	-4.7	2.7	1.5	/	/
- COc1ccccc1NC(=O)c1ccc(-c2nn(C)c(=O)c3ccccc23)cc1
    1%	i	-2.8	-1.4	-1.5	0.71	2.5
- CC(C)CC[C@@H](O)[C@](C)(O)C1CC[C@@]2(O)C3=CC(=O)[C@@H]4C[C@@H](O)[C@@H](O)C[C@]4(C)C3CC[C@]12C (stereo partly specified)
    /	i	-3.3	/	-0.5	/	4.4
- CC(C)NS(=O)(=O)c1ccc(NC(=O)C(C)OC(=O)CCC(=O)c2cccs2)cc1 (stereo unspecified)
    4%	i	-5.0	/	1.6	0.7	1.8
- CC(=O)N1CCN(c2ccccc2NC(=O)c2cc3ccccc3o2)CC1
    8%	i	0.7	4.0	-2.4	0.67	0.9
- CC(C)NC(=O)/C(C#N)=C/c1ccc2c(c1)OCCO2
    2%	/	/	-0.5	-2.9	0.75	6.2
- O=C(Nc1ccccc1Cc1ccccc1)c1oc2ccccc2c1COc1ccccc1
    /	i	3.4	-0.6	-0.3	0.7	5.4
- CC1CC(Nc2ccccc2)c2ccccc2N1C(=O)c1ccccc1F (stereo unspecified)
    /	i	3.5	-2.8	1.0	0.66	-0.7
- CSc1ccccc1C(=O)N1CCC(CCC(=O)NCc2ccc(F)cc2)CC1
    5%	i	0.1	4.2	0.0	0.72	1.0
- COc1ccc(C(=O)N/N=C(\C)Cn2nc([N+](=O)[O-])cc2C)cc1
    1%	/	/	-3.1	3.0	/	/
- COCCCN(CC(=O)O)S(=O)(=O)c1ccccc1
    -8%	i	-2.4	2.3	2.3	0.67	-0.7
- O=C(COC(=O)c1cc([N+](=O)[O-])ccc1N1CCOCC1)NCc1ccc(F)cc1
    9%	i	2.1	3.3	1.9	/	/
- Cc1ccc(-n2c(SCC(=O)NCc3ccco3)nc3sc4c(c3c2=O)CC(C)(C)SC4)cc1
    -28%	/	/	0.9	-0.5	0.74	-3.6
- CCOC(=O)N1CCN(C(=O)c2ccc(CNS(=O)(=O)c3ccc(OC)cc3)cc2)CC1
    0%	/	/	-2.0	-1.6	0.73	1.2
- CCOc1ccc(-n2c(=O)c3sccc3n(Cc3cccc([N+](=O)[O-])c3)c2=O)cc1
    25%	i	-21	?	-0.4	0.68	2.0
- COc1ccc(C2=Nc3ccccc3N(C(=O)c3ccc(C)cc3)C2C(=O)Nc2c(C)cccc2C)cc1 (stereo unspecified)
    /	i	3.3	/	6.1	/	/
- Cc1ccc(C)c(NC(=O)COC(=O)c2cccc3c2C(=O)c2ccccc2C3=O)c1
    /	i	9.5	-4.7	-2.8	0.7	2.9
- CC(=O)Nc1cc2nc(C)n(Cc3ccc([N+](=O)[O-])cc3)c2nc1C
    23%	i	16	-1.0	-0.8	0.62	4.3
- CCOC(=O)c1c(N)sc(C(O)(C(F)(F)F)C(F)(F)F)c1-c1ccccc1
    ?	/	/	-0.1	1.2	0.7	1.2
- O=C(CCNS(=O)(=O)c1cccs1)NC1CCN(Cc2ccccc2)CC1
    19%	i	0.9	?	0.8	0.69	4.1

# (cont.)
# Every second line gives: Vif TR-FRET	FGF22 binding	AF4-AF9 inh	RanGTP-Imp inh	HNF4A DNA FP	Ecoli growth	UCH37 DUB inh
- CN(c1ccccc1)S(=O)(=O)c1cccc(NC(=O)c2ccc(=O)[nH]c2)c1
    /	i	4.1	/	-0.7	0.62	1.1
- O=CNc1ccc2c(c1)Cc1cccc(NC=O)c1-2
    -4%	i	8.0	/	-1.6	0.71	0.0
- COc1ccc(NC(=O)CN(C)C(=O)CCNC(=O)c2ccccc2OC)cc1
    /	i	-6.7	/	-2.4	0.67	0.8
- CCC(C)(C)n1nnnc1C(c1cc(OC)ccc1OC)N1CCC(C(N)=O)CC1 (stereo unspecified)
    22%	/	/	-0.3	1.8	0.71	0.5
- CCOC(=O)N1CCC(NC(=O)c2cnn3c2NC(c2ccco2)CC3C(F)(F)F)CC1 (stereo unspecified)
    24%	/	/	3.4	15	0.78	3.9
- CCCCNC(=O)[C@H](Cc1c[nH]c2ccccc12)NC(=O)c1ccccc1Cl
    -3%	i	3.6	/	-1.8	0.68	-0.5
- Cc1ccc(CNC(=O)Cn2ccc3cc(S(=O)(=O)N4CCCC4)ccc32)o1
    5%	i	1.7	4.7	-0.9	0.67	0.1
- COC(=O)c1c(CCl)noc1C(=O)NC(C)C
    ?	i	-1.6	2.1	0.6	0.66	-1.4
- Cc1ccc(NS(=O)(=O)c2cccc(C(=O)NCCc3c[nH]c4ccccc34)c2)c(C)c1
    17%	i	0.5	-1.4	-1.2	0.73	6.9
- O=C(Cn1cnc2c(nnn2-c2cccc(F)c2)c1=O)Nc1ccc2c(c1)OCCO2
    3%	i	-1.2	2.9	3.6	0.7	2.7
- Cc1occc1-c1nc(-c2ccncc2)no1
    -7%	/	/	1.3	3.1	0.65	2.3
- CCCC(c1nnnn1CC1CCCO1)N1CCN(c2ccccc2)CC1 (stereo unspecified)
    1%	i	0.0	7.4	-1.0	0.69	0.2
- Cc1csc(=Nc2ccccc2)n1CCO
    /	i	10	1.1	4.3	0.67	6.3
- CCCCOc1ccc(C(C)NC(=O)CCS(=O)(=O)Cc2ccccc2Cl)cc1 (stereo unspecified)
    1%	/	/	9.7	2.6	0.69	5.7
- CN(C)c1cc[n+](CC(=O)c2ccc(OC(F)F)cc2)cc1
    5%	i	-19	-0.5	4.0	0.73	-0.1

# Some entries already given, reduced to Ecoli growth, HNF4A DNA FP and UCH37 DUB inh:
molecule	Ecoli growth	HNF4A DNA FP	UCH37 DUB inh
CN(c1ccccc1)S(=O)(=O)c1cccc(NC(=O)c2ccc(=O)[nH]c2)c1	0.62	-0.7	1.1
O=CNc1ccc2c(c1)Cc1cccc(NC=O)c1-2	0.71	-1.6	0.0
